Screens from PubChem BioAssay.
KCNQ2 inh = KCNQ2 potassium channel inhibitors, primary screen, cell-based, CHO-K1, FluxOR thallium flux, B-score (AID 2156); O88943; 20 min; stronger effect = lower value; only compounds with negative scores are shown here; some inactives read as strong as hits; B-score at 10 µM; 1.1% of 310,000 active;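 active = fluorescence ratio B-score at most minus 3 library SDs, with starting brightness B-score within 2 library SDs, cut at about -5.5 in these data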
Target sequence (O88943 whole entry, looked up): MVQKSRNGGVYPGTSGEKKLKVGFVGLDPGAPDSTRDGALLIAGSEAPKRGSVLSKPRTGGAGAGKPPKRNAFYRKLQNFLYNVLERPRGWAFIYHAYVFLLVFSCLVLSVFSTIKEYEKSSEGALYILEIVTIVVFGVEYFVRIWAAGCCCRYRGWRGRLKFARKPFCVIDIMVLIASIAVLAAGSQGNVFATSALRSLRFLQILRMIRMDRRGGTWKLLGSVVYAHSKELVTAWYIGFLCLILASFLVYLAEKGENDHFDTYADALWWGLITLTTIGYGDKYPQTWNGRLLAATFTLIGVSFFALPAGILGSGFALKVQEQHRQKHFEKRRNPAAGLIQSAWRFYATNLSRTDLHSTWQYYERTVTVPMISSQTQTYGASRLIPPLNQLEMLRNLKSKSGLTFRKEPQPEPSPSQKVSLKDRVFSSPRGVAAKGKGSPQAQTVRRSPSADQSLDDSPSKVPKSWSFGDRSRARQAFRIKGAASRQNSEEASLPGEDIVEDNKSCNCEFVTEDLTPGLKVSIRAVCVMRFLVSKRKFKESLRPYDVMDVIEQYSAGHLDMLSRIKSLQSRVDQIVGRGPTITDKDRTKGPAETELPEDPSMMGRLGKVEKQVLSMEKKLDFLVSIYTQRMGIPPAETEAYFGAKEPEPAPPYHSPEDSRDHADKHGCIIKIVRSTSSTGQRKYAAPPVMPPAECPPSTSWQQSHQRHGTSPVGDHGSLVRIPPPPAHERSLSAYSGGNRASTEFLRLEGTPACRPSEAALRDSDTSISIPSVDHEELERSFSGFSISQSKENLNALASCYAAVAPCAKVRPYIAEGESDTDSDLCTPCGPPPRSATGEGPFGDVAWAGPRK
KCNQ2 inh baseline = also measured in KCNQ2 inh; calls as there; B-score; measured here: initial fluorescence intensity artifact check;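 brightness before thallium and not channel activity; 0 = typical well and far values either way flag optical interference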
Numbers without * were called inactive; i = inactive. A portion of the library; count on the stated rates, not on these rows.

SMILES	KCNQ2 inh	KCNQ2 inh baseline
CC1CC(C)CN(C(=O)c2ccc(N3CC4CC(C3)c3cccc(=O)n3C4)c([N+](=O)[O-])c2)C1 (stereo not given)	i	0.08
Cc1cc2nn(-c3ccccc3)nc2cc1NC(=O)c1cccs1	i	-0.79
CCC(C)(C)n1nnnc1C(c1cc2cc3c(cc2[nH]c1=O)OCO3)N1CCCCC1 (stereo not given)	i	0.58
S=C(NCCc1ccccc1)Nc1cnc2ccccc2c1	i	-0.98
CCOc1ccc(NC(=O)CSc2nnc(C)n2CCCOC)cc1	i	1.5
Cc1onc(-c2ccccc2)c1C(=O)Nc1cccc(C#N)c1	i	-0.34
O=C(COc1ccccc1)Nc1cccc(-c2nc3ccccc3[nH]2)c1	i	-0.3
Cc1ccc(C)c(NC(=O)CSc2c(C)n[nH]c2C)c1	i	-1.3
O=C(NNC(=O)c1ccccc1Br)c1ccc(Cl)cc1	i	0.19
CCOC(=O)C1(CCCc2ccccc2)CCN(C(=O)CSC)CC1	i	0.25
COC(=O)C1=CN(C(C)C)C=C(C(=O)OC)C1c1cc(Br)c(OC)c(OC)c1	i	2
Nn1cnc2scc(-c3ccco3)c2c1=O	i	0.67
CCCC(=O)Nc1cccc(NC(=O)c2ccccc2Br)c1	i	0.54
Cc1onc(-c2ccccc2Cl)c1C(=O)Nc1ccc(S(=O)(=O)NCC2CCCO2)cc1 (stereo not given)	i	-1.1
Cc1cc(C)c(/C=C(\C#N)C(N)=S)c(C)c1	i	1.5
Cc1ccc(CN2C(=O)N/C(=C/c3cc(C)n(-c4ccccn4)c3C)C2=O)cc1	i	0.99
COc1cc(/C=C2\OC(=O)c3c(OC)cccc32)ccc1O	i	0.69
O=[N+]([O-])c1ccc(C(=S)N2CCC(Cc3ccccc3)CC2)cc1	i	2.1
O=C(CC(=O)N/N=C/c1ccccc1)NCc1ccccc1	i	-0.55
COc1ccc(C(=O)Nc2nnc(S(=O)(=O)N3CCOCC3)s2)cc1	i	-2.1
O=C(Nc1cnn(Cc2ccc(F)cc2)c1)c1cc(-c2ccco2)on1	i	1.6
C=CCNC(=O)C(C#N)c1nc2ccccc2nc1N1CCCCCC1 (stereo not given)	i	-0.67
CC1(C)CC(=O)C=C(Nc2ccc(C(=O)O)c(O)c2)C1	i	0.52
C/C(=N\NC(=O)c1ccccc1)c1c(C)[nH]n(-c2ccccc2)c1=O	i	-0.96
CN(CC(=O)Nc1ccc(N2CCOCC2)cc1)C(=O)c1ccc(O)c(Cl)c1	i	-1.6
(cont.)
SMILES	KCNQ2 inh	KCNQ2 inh baseline
CC1(c2ccc(OC(F)F)cc2)NC(=O)N(/N=C/c2c(O)ccc3ccccc23)C1=O (stereo not given)	i	-1.1
NC(=O)c1nn(-c2ccccc2)c(=O)cc1O	i	0.74
CC(=O)Nc1cccc2c1OCCO2	i	-0.24
CC1(C)N=C(/C=N/O)CN1O	i	1.2
O=C(CCc1nc2ccccc2c(=O)[nH]1)Nc1cc(C(F)(F)F)ccc1N1CCOCC1	i	0.01
N#CC1=C2N=C(N)c3ccccc3N2C2=C(C(=O)CCC2)C1c1ccc(F)cc1 (stereo not given)	i	0.39
O=C1CC(c2c[nH]c3ccccc23)C(=O)N1 (stereo not given)	i	2.1
COc1ccc(CNC(=O)COC(=O)/C=C/c2cccs2)cc1	i	-0.16
Cc1cc(NC(=O)COC(=O)C2CCN(S(=O)(=O)c3ccccc3)CC2)c([N+](=O)[O-])cc1C	i	-1.3
CCN=C(NCC)SC1CC(=O)N(c2ccc(OC)cc2)C1=O (stereo not given)	i	-0.52
CCCCCCNc1nc(NCc2ccco2)nc(OCC)n1	-6.1*	-0.06*
O=C(NCCCN1CCN(CCCNC(=O)c2cccc([N+](=O)[O-])c2)CC1)c1cccc([N+](=O)[O-])c1	i	-0.54
O=C(CN(Cc1ccc2c(c1)OCO2)C(=O)CNC(=O)c1ccco1)NC1CCCCC1	i	0.16
NC(=S)Nc1nc2ccccc2s1	i	-0.89
O=[N+]([O-])c1cccc(-c2n[nH]c(=S)n2-c2ccc(Br)cc2)c1	i	-1
CCN(c1ccccc1)c1cc2ccccc2c(=O)[nH]1	i	2.1
COC(=O)c1cc(=O)n(Cc2ccc3c(c2)OCO3)c(=Nc2ccc(F)cc2)s1	i	-0.45
O=C(CCC1CCCCC1)Nc1cc(C(F)(F)F)ccc1N1CCOCC1	i	-1.7
COc1cc(C)c(Cc2cnc(N)nc2N)cc1OC	i	2.8
COC(=O)c1cc(C(=O)N2CCc3ccccc32)cc([N+](=O)[O-])c1	i	1.3
CC1(c2ccccc2Br)NC(=O)N(CC(=O)Nc2ccc(S(N)(=O)=O)cc2)C1=O (stereo not given)	i	-1.1
O=C(N1CCCCC1)C1(c2ccccc2)CCCCC1	i	0.38
Oc1nc(-c2ccc(Cl)cc2)n2ccncc12	i	1.9
O=C(CN1CCN(S(=O)(=O)c2ccc(Br)cc2)CC1)Nc1ccccc1F	i	-0.57
O=[N+]([O-])c1cc2c(cc1C=Nc1ccccc1)OCO2	i	-0.79

Entries of single compounds as entered above:
Shown for `CC1(c2ccc(OC(F)F)cc2)NC(=O)N(/N=C/c2c(O)ccc3ccccc23)C1=O` (stereo not given) = KCNQ2 inh = i; KCNQ2 inh baseline = -1.1
Shown for `N#CC1=C2N=C(N)c3ccccc3N2C2=C(C(=O)CCC2)C1c1ccc(F)cc1` (stereo not given) = KCNQ2 inh = i; KCNQ2 inh baseline = 0.39
Shown for `COc1ccc(CNC(=O)COC(=O)/C=C/c2cccs2)cc1` = KCNQ2 inh = i; KCNQ2 inh baseline = -0.16

(further entries)
SMILES	KCNQ2 inh	KCNQ2 inh baseline
Cc1ccc(/C=C/C(=O)NCCCn2ccnc2)cc1	i	1.9
Cc1cc(C)cc(C(=O)Nc2ccc(N3CCN(C(=O)c4ccco4)CC3)cc2)c1	i	0.91
COc1cccc(C2=NN(C(=O)c3cccs3)C(O)(C(F)(F)F)C2)c1 (stereo not given)	i	-1.1
CN(Cc1ncc[nH]1)Cc1cn(-c2ccccc2)nc1-c1ccc2c(c1)OCO2	i	0.1
Cc1ccc(N(CC(=O)NCc2ccc(F)cc2)C(=O)CCC(=O)Nc2ccccn2)cc1C	i	-0.19
CCCCn1c(CCn2nc(C)c(Br)c2C)n[nH]c1=S	i	0.59
O=[N+]([O-])c1ccc(-c2nc(NCc3cccnc3)c3ccccc3n2)cc1	i	0.23
Cc1cc(C(=O)N2CCN(CCc3ccccc3)CC2)no1	i	-0.07
COc1ccc(S(=O)(=O)N(C)C)cc1NC(=O)CSc1nnc(-c2cccnc2)o1	i	1.2
Cc1ccc2cccc(Oc3ncnc4scc(-c5ccccc5)c34)c2n1	i	-0.34
c1ccc(-c2n[nH]c(-c3ccccc3)c2-c2nc3ccccc3[nH]2)cc1	-9.2*	-1.7*
C/C(Cl)=C/Cn1c(SCCN2CCOCC2)nc2c1c(=O)[nH]c(=O)n2C	i	-0.5
Cn1c2ccc(F)cc2c2ncn(Cc3ccco3)c(=O)c21	i	-1.5
CSCCC(NC(=O)/C(=C/c1ccco1)NC(=O)c1ccc(Br)o1)C(=O)O (stereo not given)	i	-1.4
COc1ccccc1CNC(=O)CCCn1nc(C)n2ccnc2c1=O	i	0.62
COc1ccccc1C(=O)COC(=O)c1ccccc1OCC(=O)Nc1ccc(SC(F)F)cc1	i	0.44
O=C(O)c1ccc2[nH]c3c(c2c1)CCCC3	i	2.6
Cc1ccc(O)c(C(=O)c2cc(C#N)c(=O)n(-c3nccs3)c2)c1	i	-0.03
O=C(COC(=O)/C=C/c1ccccc1)Nc1ccccc1Br	i	0.56
CCOc1c(OC)cc(C2C(C#N)=C(N)Oc3n[nH]c(-c4ccncc4)c32)cc1OC (stereo not given)	i	1.5
CC(C)(C)NC(=O)CSc1nc(-c2ccccc2)c(-c2ccccc2)[nH]1	i	0.04
COc1cccc(OCc2nnc(SCC(=O)NCc3ccco3)n2CCc2ccccc2)c1	-6.8*	0.39*
COc1ccc(/C=N/n2cnn(Cc3ccccc3Cl)c2=S)cc1	i	0.52
COc1ccc(C=NCC2COc3ccccc3O2)cc1OC (stereo not given)	i	1.2
O=C(NCc1ccccc1)Nc1cccn(Cc2ccc(F)cc2)c1=O	i	0.95
Continuation:
SMILES	KCNQ2 inh	KCNQ2 inh baseline
COc1ccc(C(CC(=O)NCc2ccccc2)Sc2n[nH]c(-c3ccccc3)n2)cc1 (stereo not given)	i	1.5
CCOC(=O)C1=NN(c2ccc(F)cc2)C2=NC(C)=C(C(=O)OC)C(c3cccs3)N12 (stereo not given)	i	-0.01
COC(=O)CSC1=C(C#N)C(c2ccccc2OC)C(C(=O)OC)C(=O)N1 (stereo not given)	i	-2.9
Cc1ccc(/C=N/n2cnc3sc(C)c(C)c3c2=O)o1	i	-0.69
CC(C)=NN1C(c2nonc2N)=NOC1(C)C	i	-0.05
CC(=O)/C(=N/Nc1ccccc1[N+](=O)[O-])N1CCCc2ccccc21	i	-0.15
O=C(Nc1ccc(C(F)(F)F)cc1)C1CCN(c2cnccn2)CC1	i	-1.5
O=C(O)c1ccc(F)c(S(=O)(=O)Nc2ccccc2)c1	i	0.28
CC(C)=CC(=O)N1CCCC(N2CCN(c3ccccc3C)CC2)C1 (stereo not given)	i	1.3
Cc1cc(OC(=O)c2cccc(Cl)c2)c([N+](=O)[O-])c(=O)[nH]1	i	-0.52
Cc1cc(C)c(S(=O)(=O)N2CCC(C(=O)NCc3ccco3)CC2)c(C)c1	i	-2.1
Cn1c(=O)c(C(=O)NNC(=O)c2cccc(Cl)c2)c(O)c2ccccc21	i	0.25
CC(=O)N1c2ccc(S(=O)(=O)CCC(=O)O)cc2CC1C (stereo not given)	i	3.1
CN(CC(=O)Nc1cccc(F)c1)C(=O)C1=COCCO1	i	0.24
COc1ccccc1N1CCN(/N=C\c2ccc(C)o2)CC1	i	1.2
CCNC(=O)COC(=O)CCC(=O)c1ccc(F)cc1	i	-0.26
Cc1nn(Cc2ccc(F)cc2)c(C)c1NC(=O)c1cc(-c2ccc3c(c2)OCO3)on1	i	0.88
Cc1ccc(N(CN2CCCC2=O)C(=O)c2ccc(OC(C)C)cc2)cc1	i	-0.46
N#C/C(=C\c1c(Cl)cccc1Cl)c1nn(-c2ccccc2)c(-n2cccc2)c1C#N	i	0.45
Cc1ccc(C(=O)Nc2ccc(N3CCOCC3)nc2)cc1	i	-0.71
c1ccc(C[n+]2c(-c3ccccc3)csc2Nc2ccccc2)cc1	i	0.24
CC(=O)O/N=C(/C)c1ncc(C(F)(F)F)cc1N1CCOCC1	i	-0.91
Cc1cc(=O)n2c(-c3ccc(Cl)cc3)csc2n1	i	-0.25
CN(Cc1ccccc1F)C(=O)C(Cc1ccccc1)NC(=O)c1ccccc1 (stereo not given)	-7.9*	-0.1*
Cn1cc(SCC(=O)Nc2ccc3c(c2)OCO3)c2ccccc21	i	0.21

The closing 7 compounds of the part before open the next one.
SMILES	KCNQ2 inh	KCNQ2 inh baseline
N#C/C(=C\c1c(Cl)cccc1Cl)c1nn(-c2ccccc2)c(-n2cccc2)c1C#N	i	0.45
Cc1ccc(C(=O)Nc2ccc(N3CCOCC3)nc2)cc1	i	-0.71
c1ccc(C[n+]2c(-c3ccccc3)csc2Nc2ccccc2)cc1	i	0.24
CC(=O)O/N=C(/C)c1ncc(C(F)(F)F)cc1N1CCOCC1	i	-0.91
Cc1cc(=O)n2c(-c3ccc(Cl)cc3)csc2n1	i	-0.25
CN(Cc1ccccc1F)C(=O)C(Cc1ccccc1)NC(=O)c1ccccc1 (stereo not given)	-7.9*	-0.1*
Cn1cc(SCC(=O)Nc2ccc3c(c2)OCO3)c2ccccc21	i	0.21
O=C(NCc1cccc(Cl)c1)C1CCCO1 (stereo not given)	i	0.62
Cc1ccc(C(=O)NNc2ncnc3ccccc23)cc1	i	0.11
FC(F)Sc1ccc(NC(=S)N2CCN(c3ccccn3)CC2)cc1	i	-0.92
Cc1cccc(C)c1N1C(=O)CC(N(O)c2ccccc2)C1=O (stereo not given)	i	1.7
Cc1ccc(NC(=S)N(CCCN2CCN(C)CC2)Cc2cccs2)cc1	i	3
Fc1ccc(CSc2nnc(CN3CCOCC3)n2-c2ccccc2)c(Cl)c1	i	-0.14
COc1ccc(OC)c(NC(=O)C2CCCN(S(C)(=O)=O)C2)c1 (stereo not given)	i	2.3
CCCC1=Nc2cc(C(=O)NCCCOC(C)C)ccc2Sc2ccccc21	i	0.42
COc1cc(C(=O)N(C)CCOc2ccc(C)cc2)ccc1OC1CCN(C(C)=O)CC1	i	-0.98
O=C(CCn1nnc(-c2cccs2)n1)NCc1ccccc1Cl	i	0.97
CCN1CCN(c2ccc(S(=O)(=O)N3CCCCC3)cc2NC(=O)C(C)Oc2ccc(F)cc2)CC1 (stereo not given)	i	-0.64
CC(C)OCC(O)CS(=O)(=O)Cc1ccccc1 (stereo not given)	i	-1.4
C=CCn1c(SCC(=O)/C(C#N)=C(\C)N)nc2sc(CC)cc2c1=O	i	-0.91
Cc1ccc(CNC(=O)C2CCC(=O)N(C3CCCC3)C2)c(F)c1F (stereo not given)	i	2.2
CCCn1c(NCc2ccccc2NS(=O)(=O)c2ccc(C)cc2)nc2ccccc21	i	-0.04
CCN=C1SC(C(=O)Nc2cccc(Cl)c2)CC(=O)N1CC (stereo not given)	i	0.09
O=C(COC(=O)c1c2c(nc3ccccc13)CCCCC2)NCc1ccc2c(c1)OCO2	i	-1.7
CCOC(=O)N1CCN(C(=O)CN(C2CCCCC2)S(C)(=O)=O)CC1	i	1.4
C/C(=N\NC(=O)COc1ccc(C)cc1[N+](=O)[O-])c1ccc2c(c1)OCCO2	i	-0.33
O=C(CCl)c1ccc(Cc2ncc(C(F)(F)F)cc2Cl)s1	i	-0.69
O=C(CO/N=C/c1ccccc1)Nc1c(F)c(F)c(F)c(F)c1F	i	0.37
